Compound activity: PubChem BioAssay, Broad Institute
Vaccinia stage: blocks a specific stage of Vaccinia orthopoxvirus infection, primary screen, cell-based, single point; Vaccinia-infected cells, mCherry/Venus stage reporter fluorescence; hits give low values; some inactives read as strong as hits; activity change (mCherry), % (no concentration beside the values); hit rate 0.01% among 89,000; AID 1053133, 2014;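 active = mCherry past -33% and 40 or more points under the early reporter, replicates agreeing; inconclusive = past -33% without that gap or agreement; tested in A549 cells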;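 note: scaled between vehicle wells and reference inhibitor wells; 23 nL library stock went into each well; one replicate is shown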
Vaccinia stage Venus: recorded beside Vaccinia stage, whose call it bears; activity change (Venus), %; measured here: Venus reporter, other viral stage;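 negative = less Venus signal; first of two replicates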
* = called active by the depositor; ? = inconclusive; / = no result given. Only part of the results is shown; rates above refer to the full screens.

SMILES	Vaccinia stage	Vaccinia stage Venus
COc1ccc(-c2ccc([C@@H]3[C@@H](CO)N4CCCCN(CC5CCOCC5)C[C@H]34)cc2)cc1	3	3
C[C@@H]1CN([C@H](C)CO)C(=O)c2cccc(NS(=O)(=O)c3ccc(Cl)cc3)c2O[C@@H]1CN(C)C(=O)NC1CCCCC1	-7	-5
O=C(NCc1nc2ccccc2[nH]1)C1=C[C@@H](C2CCCCC2)C[C@@H](OCCCCO)O1	-6	-13
C[C@@H]1CN([C@H](C)CO)S(=O)(=O)c2ccc(C#C[C@@H](C)O)cc2O[C@H]1CN(C)C(=O)C1CC1	25	14
COCC#Cc1ccc(CC[C@H]2O[C@H]3CC[C@@H](CO)O[C@H]3C[C@@H]2n2cc(C3CC3)nn2)cc1	-4	7
C[C@@H]1CCCCO[C@@H](CN(C)Cc2ccncc2)[C@@H](C)CN([C@H](C)CO)C(=O)c2cc(NC(=O)NC3CCCCC3)ccc2O1	19	10
O=C(NCC(F)(F)F)[C@H]1[C@H](CO)[C@H]2Cn3c(cccc3=O)[C@H]2N1C(=O)C1CCCC1	12	8
O=C(NC1CCCC1)[C@H]1[C@H](CO)[C@H]2Cn3c(ccc(-c4cccnc4)c3=O)[C@@H]1N2CC1CC1	12	2
Cc1noc(C)c1NC(=O)N(C)C[C@@H]1Oc2ncc(C#Cc3ccccc3)cc2C(=O)N([C@H](C)CO)C[C@@H]1C	21	6
O=C(C[C@@H]1C[C@@H]2c3cc(NC(=O)NC4CCCC4)ccc3O[C@@H]2[C@@H](CO)O1)NCc1ccc(-c2ccccc2)cc1	12	1
C[C@@H]1CN([C@@H](C)CO)C(=O)c2cc(-c3ccncc3)cnc2O[C@H]1CN(C)Cc1ccc(Oc2ccccc2)cc1	?	/
CCOC(=O)N(C)C[C@@H]1OCc2ccccc2-c2ccccc2C(=O)N([C@@H](C)CO)C[C@@H]1C	10	3
Cc1noc(C)c1S(=O)(=O)N(C)C[C@@H]1OCCCC[C@@H](C)Oc2ccc(NC(=O)NC(C)C)cc2C(=O)N([C@@H](C)CO)C[C@@H]1C	9	0
Cc1ccc(S(=O)(=O)N(C)C[C@H]2OCCCC[C@H](C)Oc3ccc(NS(=O)(=O)c4c(C)noc4C)cc3C(=O)N([C@H](C)CO)C[C@@H]2C)cc1	?	/
O=C(C[C@H]1C[C@H]2c3cc(NC(=O)C4CCC4)ccc3O[C@H]2[C@H](CO)O1)NCc1ccccn1	1	-2
COc1ccc2c3c([nH]c2c1)[C@@H](CO)N(C(=O)C1CCOCC1)CC31CN(S(C)(=O)=O)C1	8	1
O=C(C[C@@H]1C=C[C@H](NC(=O)CC2CC2)[C@@H](CO)O1)NCc1ccc(Cl)cc1	15	12
Cc1noc(C)c1NC(=O)Nc1cccc2c1O[C@H](CN(C)Cc1ccc(C(=O)Nc3ccccc3N)cc1)[C@H](C)CN([C@H](C)CO)C2=O	27	6
CC(=O)N(C)C[C@H]1Oc2ncc(C#Cc3cccc(F)c3)cc2C(=O)N([C@@H](C)CO)C[C@H]1C	13	4
COCC(=O)N1[C@@H](C#N)[C@@H](c2ccc(-c3cccc(F)c3)cc2)[C@@H]1CO	-7	-7
CCCC#Cc1ccc([C@H]2[C@H]3CN(Cc4cncnc4)CCCCN3[C@H]2CO)cc1	-4	-10
Cc1noc(C)c1NC(=O)Nc1ccc2c(c1)C(=O)N([C@@H](C)CO)C[C@H](C)[C@@H](CN(C)C(=O)Nc1ccc(C(F)(F)F)cc1)OCCCC[C@H](C)O2	-18	-18
COc1cccc(-c2cnc3c(c2)C(=O)N([C@@H](C)CO)C[C@@H](C)[C@H](CN(C)Cc2cccnc2)O3)c1	6	4
C[C@@H]1CN([C@@H](C)CO)C(=O)c2cc(NC(=O)Nc3ccc4c(c3)OCO4)ccc2O[C@@H]1CN(C)C(=O)Nc1ccc2c(c1)OCO2	19	13
Cc1noc(C)c1NC(=O)Nc1ccc2c(c1)CC(=O)N([C@@H](C)CO)C[C@@H](C)[C@H](CN(C)S(=O)(=O)c1ccc(F)cc1)O2	17	2
CCCc1cn(CC[C@@H]2CC[C@@H](NS(=O)(=O)c3ccc(-c4ccccc4)cc3)[C@H](CO)O2)nn1	?	/
CO[C@H]1CN(C)C(=O)c2cc(NC(=O)Nc3ccccc3Cl)ccc2OC[C@@H](C)NC[C@H]1C	-22	-8
CO[C@@H]1CN(C)C(=O)c2cc(NC(=O)Nc3c(C)noc3C)ccc2OC[C@H](C)N(CCC(F)(F)F)C[C@H]1C	-12	-7
CO[C@@H]1CN(C)C(=O)c2cc(NS(=O)(=O)c3cccc(Cl)c3)ccc2OC[C@H](C)NC[C@@H]1C	2	1
C[C@@H]1CN([C@H](C)CO)C(=O)c2cc(NC(=O)Nc3ccc4c(c3)OCO4)ccc2O[C@H]1CN(C)Cc1ccc(Oc2ccccc2)cc1	-8	-5
CN1CCCCN2[C@H](CO)[C@H](c3ccc(-c4cccnc4)cc3)[C@H]2C1	17	-2
CN(C)C(=O)c1cccc(-c2ccc([C@@H]3[C@@H](CO)N4C(=O)CN(C(=O)CC5CC5)C[C@@H]34)cc2)c1	11	9
COc1ccc(S(=O)(=O)N(C)C[C@H]2Oc3ccc(NC(=O)C4CCCCC4)cc3C(=O)N([C@H](C)CO)C[C@H]2C)cc1	-29	-16
COc1ccc(NC(=O)Nc2ccc3c(c2)C(=O)N([C@H](C)CO)C[C@@H](C)[C@@H](CN(C)Cc2ccc(Oc4ccccc4)cc2)O3)cc1	-23	-15
C[C@@H]1CN([C@H](C)CO)C(=O)c2cc(NS(C)(=O)=O)ccc2O[C@@H](C)CCCCO[C@H]1CN(C)CC1CC1	20	8
CN(C)C(=O)c1ccc(-c2ccc([C@@H]3[C@H]4CN(C(=O)CC5CC5)CC(=O)N4[C@H]3CO)cc2)cc1	23	19
O=C(C[C@H]1CC[C@H]2[C@@H](COC[C@@H](O)CN2Cc2nccs2)O1)NCc1ccc(F)cc1	20	5
O=C(C[C@H]1C=C[C@@H](NC(=O)C2CCC2)[C@H](CO)O1)NCCCN1CCOCC1	4	0
CN(C[C@@H]1[C@H](c2ccccc2)[C@@H](CO)N1C(=O)C1CCC1)C(=O)c1ccccn1	11	3
O=C(C1CC1)N1[C@@H]2CN(S(=O)(=O)c3ccccc3)c3ccccc3[C@@H]2[C@@H]1CO	-4	-6
C[C@H](CO)N1C[C@H](C)[C@H](CN(C)Cc2ccc(C(=O)Nc3ccccc3N)cc2)Oc2c(NC(=O)Nc3ccccc3)cccc2C1=O	-1	0
CO[C@H]1CN(C)C(=O)c2ccc(NC(=O)C3CCCC3)cc2OC[C@H](C)N(C(=O)CC2CC2)C[C@H]1C	0	1
O=C(C[C@H]1CC[C@@H]2[C@H](COC[C@@H](O)CN2Cc2ccccc2F)O1)N1CCc2ccccc2C1	-7	-8
C[C@@H]1CN([C@H](C)CO)S(=O)(=O)c2ccc(C#C[C@@H](C)O)cc2O[C@H]1CN(C)C	24	3
C[C@H](CO)N1C[C@H](C)[C@H](CN(C)C(=O)CCC(F)(F)F)OCCCC[C@H](C)Oc2ccc(NS(=O)(=O)c3cn(C)cn3)cc2C1=O	7	2
CC(=O)N[C@H]1CC[C@@H](CCNC(=O)C2CCCCC2)O[C@H]1CO	7	3
O=C(C1CCOCC1)N1CC(=O)N2[C@@H](CO)[C@@H](c3ccc(C#Cc4cccc(F)c4)cc3)[C@@H]2C1	?	/
CCC(=O)N1[C@@H](CO)[C@H](c2ccc(-c3ccccc3OC)cc2)C12CN(C(C)=O)C2	-6	1
CCCC(=O)Nc1ccc2c(c1)C(=O)N(C)[C@@H]1CC[C@@H](CC(=O)NCCc3ccccc3)O[C@@H]1CO2	16	12
C[C@H]1CN([C@@H](C)CO)C(=O)c2cc(NC(=O)Nc3ccccc3)ccc2O[C@H]1CN(C)C	19	3
CC(C)NC(=O)N(C)C[C@@H]1Oc2ccc(N(C)C)cc2CC(=O)N([C@@H](C)CO)C[C@H]1C	17	11
COc1ccc(NC(=O)Nc2ccc3c(c2)C(=O)N([C@@H](C)CO)C[C@@H](C)[C@@H](CN(C)Cc2ccc(C(=O)O)cc2)OCCCC[C@@H](C)O3)cc1	21	8
C[C@H]1CN([C@@H](C)CO)C(=O)c2ccccc2-c2ccccc2CO[C@H]1CN(C)Cc1ccc(-c2ccccc2)cc1	?	/
COc1ccc(NC(=O)N(C)C[C@H]2Oc3cc(-c4ccc(C)cc4)ccc3S(=O)(=O)N([C@H](C)CO)C[C@H]2C)cc1	?	/
C[C@@H]1CN([C@@H](C)CO)S(=O)(=O)c2ccc(C#C[C@@H](C)O)cc2O[C@@H]1CN(C)Cc1ccccn1	16	8
C[C@@H]1CCCCO[C@@H](CN(C)C(=O)C2CCCCC2)[C@@H](C)CN([C@H](C)CO)C(=O)c2cc(NS(=O)(=O)c3ccc(F)cc3)ccc2O1	?	/
O=C(C[C@H]1CC[C@H](NS(=O)(=O)c2ccccc2)[C@@H](CO)O1)N1CCC(Cc2ccccc2)CC1	-7	-7
COc1ccc(S(=O)(=O)N(C)C[C@@H]2Oc3c(NS(=O)(=O)c4cn(C)cn4)cccc3C(=O)N([C@H](C)CO)C[C@H]2C)cc1	3	7
C[C@H](CO)N1C[C@H](C)[C@H](CN(C)Cc2ccc3c(c2)OCO3)Oc2ccc(NC(=O)CCCN(C)C)cc2C1=O	3	2
C[C@H]1CN([C@@H](C)CO)C(=O)c2cccc(NC(=O)Nc3ccc(F)cc3)c2O[C@H]1CN(C)Cc1ccc2c(c1)OCO2	?	/

Continued:
SMILES	Vaccinia stage	Vaccinia stage Venus
COCC(=O)N(C)C[C@H]1Oc2cc(Br)ccc2S(=O)(=O)N([C@H](C)CO)C[C@@H]1C	13	10
C[C@H](CO)N1C[C@H](C)[C@H](CN(C)S(=O)(=O)c2ccc(F)cc2)Oc2c(NC(=O)NC3CCCCC3)cccc2C1=O	?	/
C[C@H](CO)N1C[C@H](C)[C@H](CN(C)CC2CCCCC2)Oc2ccc(NC(=O)Nc3ccc(C(F)(F)F)cc3)cc2CC1=O	-31	-28
C[C@H](O)C#Cc1cnc2c(c1)C(=O)N([C@@H](C)CO)C[C@H](C)[C@@H](CN(C)CC1CCCCC1)O2	23	6
Cc1ccc(S(=O)(=O)Nc2ccc3c(c2)C(=O)N([C@@H](C)CO)C[C@H](C)[C@@H](CN(C)S(=O)(=O)c2c(C)noc2C)OCCCC[C@@H](C)O3)cc1	-23	-14
CO[C@H]1CC[C@@H]2CCOc3c(C#N)cccc3C(=O)N(C)C[C@H](OC)[C@@H](C)C(=O)N(C)C[C@@H]1O2	22	14
CCNC(=O)C[C@H]1CC[C@@H](NC(=O)NC2CCCCC2)[C@@H](CO)O1	7	3
Cc1ccc(S(=O)(=O)Nc2ccc3c(c2)C(=O)N([C@H](C)CO)C[C@@H](C)[C@@H](CN(C)Cc2ccc(C(=O)O)cc2)OCCCC[C@H](C)O3)cc1	37	22
CCS(=O)(=O)N1CC(=O)N2[C@H](CO)[C@@H](c3ccc(C#CC4CCCCC4)cc3)[C@@H]2C1	-24	-23
CN(C)CCCNC(=O)[C@H]1[C@H](CO)[C@H]2Cn3c(ccc(C4=CCCCC4)c3=O)[C@@H]1N2Cc1cocn1	17	12
Cc1noc(C)c1NC(=O)N(C)C[C@H]1Oc2ccc(NS(=O)(=O)c3ccc(Cl)cc3)cc2C(=O)N([C@@H](C)CO)C[C@H]1C	19	10
C[C@H]1CN([C@@H](C)CO)C(=O)Cc2cc(NS(=O)(=O)c3cccs3)ccc2O[C@H]1CN(C)S(=O)(=O)c1ccc(F)cc1	-5	-4
O=C(Nc1ccc2c(c1)[C@H]1C[C@@H](CC(=O)N3CCCCC3)O[C@@H](CO)[C@H]1O2)c1ccc2c(c1)OCO2	18	7
COc1ccc(NC(=O)Nc2ccc3c(c2)C(=O)N([C@@H](C)CO)C[C@@H](C)[C@@H](CN(C)S(=O)(=O)c2ccc(F)cc2)OCCCC[C@H](C)O3)cc1	15	6
C[C@@H](NC(=O)C[C@H]1C[C@@H]2c3cc(NC(=O)CN(C)C)ccc3O[C@@H]2[C@@H](CO)O1)c1ccccc1	3	-5
C[C@@H]1CN([C@@H](C)CO)C(=O)c2cc(NC(=O)C3CC3)ccc2O[C@@H]1CN(C)C(=O)Nc1cccc2ccccc12	-3	8

Filtered by structure: the entries above containing an aryl methoxy group (ten)
SMILES	Vaccinia stage	Vaccinia stage Venus
COc1ccc(-c2ccc([C@@H]3[C@@H](CO)N4CCCCN(CC5CCOCC5)C[C@H]34)cc2)cc1	3	3
COc1ccc2c3c([nH]c2c1)[C@@H](CO)N(C(=O)C1CCOCC1)CC31CN(S(C)(=O)=O)C1	8	1
COc1cccc(-c2cnc3c(c2)C(=O)N([C@@H](C)CO)C[C@@H](C)[C@H](CN(C)Cc2cccnc2)O3)c1	6	4
COc1ccc(S(=O)(=O)N(C)C[C@H]2Oc3ccc(NC(=O)C4CCCCC4)cc3C(=O)N([C@H](C)CO)C[C@H]2C)cc1	-29	-16
COc1ccc(NC(=O)Nc2ccc3c(c2)C(=O)N([C@H](C)CO)C[C@@H](C)[C@@H](CN(C)Cc2ccc(Oc4ccccc4)cc2)O3)cc1	-23	-15
CCC(=O)N1[C@@H](CO)[C@H](c2ccc(-c3ccccc3OC)cc2)C12CN(C(C)=O)C2	-6	1
COc1ccc(NC(=O)Nc2ccc3c(c2)C(=O)N([C@@H](C)CO)C[C@@H](C)[C@@H](CN(C)Cc2ccc(C(=O)O)cc2)OCCCC[C@@H](C)O3)cc1	21	8
COc1ccc(NC(=O)N(C)C[C@H]2Oc3cc(-c4ccc(C)cc4)ccc3S(=O)(=O)N([C@H](C)CO)C[C@H]2C)cc1	?	/
COc1ccc(S(=O)(=O)N(C)C[C@@H]2Oc3c(NS(=O)(=O)c4cn(C)cn4)cccc3C(=O)N([C@H](C)CO)C[C@H]2C)cc1	3	7
COc1ccc(NC(=O)Nc2ccc3c(c2)C(=O)N([C@@H](C)CO)C[C@@H](C)[C@@H](CN(C)S(=O)(=O)c2ccc(F)cc2)OCCCC[C@H](C)O3)cc1	15	6
